Screens: PubChem, ICCB-Longwood Screening Facility, Harvard Medical School
HCMV UL50-53 inh = cytomegalovirus nuclear egress complex inhibition; AID 1918969; 190,000 compounds, 0.15% hits; HTRF UL50-UL53 interaction, normalized percent inhibition; inhibition, % (no concentration beside the values);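 active means both replicates at 50% or more, plus weaker picks with an unusually low signal ratio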;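 further: stock transfer was 100 nL into about 20 µL; 0% = negative control wells and 100% = wells with untagged competitor protein; inactives centre near -12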
Sa growth inh = blocks Staphylococcus aureus growth. S. aureus RN4220 growth, OD600, 20 h, 42 °C; hits give low values. AID 720641. relative growth, % (no concentration beside the values). 170,000 compounds, 0.53% hits;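 active means growth at 42 °C up to 50% and 20 or more points under that at 30 °C, or under 10% at both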;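 further: 300 nL library stock went into each well; scaled to the means of positive and negative controls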
GIV Gai3 FP = blocks GIV peptide binding to rat Galpha-i3. Galpha-i3/FITC-GIV peptide fluorescence polarization, 90 min; hits give low values; scaled: aluminum fluoride 0%, vehicle 100%. P08753. percent of control (FP), % (no concentration beside the values). 210,000 compounds, 0.42% hits;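 active means replicate mean at 85% of control or lower, very high polarization wells dropped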;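 further: wells of about 15 µL received 100 nL stock; the first replicate is given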
Target sequence (P08753 whole entry, looked up): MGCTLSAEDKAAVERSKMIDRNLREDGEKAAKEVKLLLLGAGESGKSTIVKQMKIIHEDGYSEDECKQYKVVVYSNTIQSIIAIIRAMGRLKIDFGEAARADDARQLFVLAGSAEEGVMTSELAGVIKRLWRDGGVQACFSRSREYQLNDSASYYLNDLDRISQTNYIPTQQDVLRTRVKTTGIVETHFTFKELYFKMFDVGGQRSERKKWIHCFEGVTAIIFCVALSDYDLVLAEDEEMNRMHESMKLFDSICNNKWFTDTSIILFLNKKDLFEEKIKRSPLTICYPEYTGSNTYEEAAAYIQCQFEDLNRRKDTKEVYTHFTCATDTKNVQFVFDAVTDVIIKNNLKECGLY
Sa growth inh second temp = second read-out of Sa growth inh, no call of its own (marks repeat the call); relative growth, %; measured here: growth at 30 °C;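 optical density after 20 h as mean of two plates; 100% = untreated growth and lower means inhibition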
* = called active by the depositor; . = no result given; & = joins results of further samples.

SMILES	HCMV UL50-53 inh	Sa growth inh	Sa growth inh second temp	GIV Gai3 FP
Cc1ccc(S(=O)(=O)NCC(c2ccccc2)N2CCOCC2)cc1 (configuration not stated)	21	.	.	97
CCCCS(=O)(=O)c1oc(-c2cccs2)nc1S(=O)(=O)c1ccc(F)cc1	-23	103	86	107
O=C(N/N=C/c1ccccc1)c1n[nH]c(=O)c2ccccc12	-13	98	98	.
CCCc1n(CC(O)COCC2CC=CCC2)c2ccccc2[n+]1C (configuration not stated)	.	100	78	102
CCCn1c(=O)c2cc(C)ccc2n2c(SCc3cc(C)ccc3C)nnc12	-23	.	.	102
CCN(CC)C(=O)c1cc(-c2ccc(OC)c(OC)c2)on1	.	98	87	109
Cc1ccc(CNc2ncnc3c2oc2ccccc23)cc1	-36	80	93	.
CC1(C)Cc2c(sc3nc(-c4ccccc4)oc(=O)c23)CO1	9	.	.	102
Cc1ccc(S(=O)(=O)N(C)S(=O)(=O)c2ccc(C#N)cc2)cc1	-16	102	90	.
Cc1ccc2c(c1)N(C(=O)Nc1cccc(C)c1C)CCO2	0	86	107	102
CC(=O)Nc1cccc(-c2nnc(SCC(=O)c3ccc([N+](=O)[O-])cc3)o2)c1	-8	89	83	106
CCOC(=O)c1c(CN(CC)CC)n(C)c2cc(Br)c(OC)cc12	-14	80	81	103
O=C(CN1N=NC2C(=O)N(c3ccc(F)cc3)C(=O)C21)Nc1ccc(Cl)cc1 (configuration not stated)	5	.	.	103
COc1nc(OC)nc(N2CCC(C(=O)NC3CCCCCC3)CC2)n1	2	57	83	105
COc1ccc(CCNC(=O)CCc2c(C)c3cc4c(C)coc4c(C)c3oc2=O)cc1OC	4	84	89	104
O=C(Nc1ccc(Cl)c(-c2nc3ccccc3o2)c1)c1cc([N+](=O)[O-])ccc1Br	-22	.	.	102
O=C(NCN1CCCCC1)Nc1cccc(Cl)c1	-13	94	71	102
CC1CCCCC1NC(=O)Cn1nnc(-c2ccc(N(C)C)cc2)n1 (configuration not stated)	8	97	108	103
COc1ccc(N2C(=O)CSC23C(=O)N(Cc2ccc(C)cc2)c2ccccc23)cc1Cl (configuration not stated)	.	128	90	110
Cc1ccccc1C(=O)NCc1nc2cccnc2n1Cc1ccccc1	.	98	81	106
COc1ccc(-n2nc(C(=O)N3CCN(c4ccc(F)cc4)CC3)c3c4ccccc4n(C)c3c2=O)cc1	-6	98	87	106
CN1CCN(CCC(=O)N/N=C/c2ccccc2)CC1	1	84	104	106
CCC(C)NC(=O)CSc1ncccc1C(=O)OC(C)C (configuration not stated)	6	106	101	104
Cc1cc(C)c(NC(=O)Cn2ccn(-c3cccc(Cl)c3)c(=O)c2=O)c(C)c1	-17	139	94	98
O=C(NCc1ccc2c(c1)OCO2)C1CCN(c2nccn3nc(-c4ccc(F)cc4)cc23)CC1	-23	.	.	109
CCCCCCC(=O)Nc1cc2nc3c(nc2cc1C)c(=O)n(C)c(=O)n3C	-59	90	104	105
CCOc1ccc(NC(=O)Cc2ccc(NC(=O)N3CCCCc4ccccc43)cc2)cc1	.	93	90	98
C=CCSc1nc2sc3c(c2c(=O)n1CCCC)CCC3	14	.	.	99
CC(=O)Nc1cccc(C(=O)NCCc2nc3ccccc3[nH]2)c1	-25	92	91	104
NNC(=O)OC12CC3CC(CC(C3)C1)C2	9	108	101	107
CCc1ccc(NC(=O)N(C2CCCCC2)C(C)c2cccnc2)cc1 (configuration not stated)	8	100	95	104
CCc1ccc(NC(=O)NC2CCN(Cc3ccccc3)CC2)cc1	19	91	99	98
Cc1noc(C)c1COC(=O)C1CSC2(C)CCC(=O)N12 (configuration not stated)	-14	92	98	.
O=C(Nc1nc(-c2ccc3c(c2)CCCC3)cs1)c1cccnc1	-7	145	89	.
CNC(=O)CCCc1nc(-c2cc3cc(C)ccc3[nH]c2=O)no1	-68	.	.	110
COc1c(/C(N)=N/O)cc(C)c2c1CCC2	2	81	90	104
O=C(CSC1=NCCS1)NC1CCCc2ccccc21 (configuration not stated)	3	105	93	.
Cc1nn(-c2ccc(Cl)cc2)c2sc(C(=O)OCCC3CCCCN3C)cc12 (configuration not stated)	-10	121	103	.
Cn1ncc(NC(=O)Nc2ccc(F)cc2F)c1C(N)=O	-3	108	55	106
CN(C)S(=O)(=O)c1ccc(C(=O)C2=C3SC=C(c4ccc(F)cc4)N3CC2)cc1	-42	102	89	.

The final 5 compounds of the section before come first, to join the parts.
SMILES	HCMV UL50-53 inh	Sa growth inh	Sa growth inh second temp	GIV Gai3 FP
COc1c(/C(N)=N/O)cc(C)c2c1CCC2	2	81	90	104
O=C(CSC1=NCCS1)NC1CCCc2ccccc21 (configuration not stated)	3	105	93	.
Cc1nn(-c2ccc(Cl)cc2)c2sc(C(=O)OCCC3CCCCN3C)cc12 (configuration not stated)	-10	121	103	.
Cn1ncc(NC(=O)Nc2ccc(F)cc2F)c1C(N)=O	-3	108	55	106
CN(C)S(=O)(=O)c1ccc(C(=O)C2=C3SC=C(c4ccc(F)cc4)N3CC2)cc1	-42	102	89	.
Cc1nc(-c2ccccc2)sc1C(=O)NC(=O)c1ccccc1O	26	37	16	102
CCOC(=O)C1CCCN(Cc2ccccc2)C1 (configuration not stated)	.	93	75	105
CNC(=O)CSc1nnc(-c2ccco2)n1CC1CCCO1 (configuration not stated)	3	86	82	105
Nc1cc(-c2ccc(Cl)cc2)nn1S(=O)(=O)c1ccc(Cl)cc1	2&-40	94	92	104&104
N#Cc1ccccc1N=Cc1cccc(O)c1O	7	60	53	.
CC(C)(C)OC(=O)N1CCC(c2nnc(SCc3ccccc3)o2)CC1	-1	82	100	102
C/C(=C\C(=O)c1ccccc1)Nc1cccc(O)c1	-18	112	94	98
CN(CC(F)(F)C(F)F)S(=O)c1ccc2ccccc2c1 (configuration not stated)	-6	109	103	.
CC1CC(C)CN(C(=O)Nc2cccc(Cl)c2)C1 (configuration not stated)	-3	98	91	101
COc1ccc(C2CC(=O)C3=C(C2)NC(C)=C(C(=O)OC(C)C)C3c2cccc(Cl)c2)cc1OC (configuration not stated)	-3	.	.	102

Pulled by compound from above:
SMILES	HCMV UL50-53 inh	Sa growth inh	Sa growth inh second temp	GIV Gai3 FP
CC(C)(C)OC(=O)N1CCC(c2nnc(SCc3ccccc3)o2)CC1	-1	82	100	102
Nc1cc(-c2ccc(Cl)cc2)nn1S(=O)(=O)c1ccc(Cl)cc1	2&-40	94	92	104&104
CCOC(=O)C1CCCN(Cc2ccccc2)C1 (configuration not stated)	.	93	75	105
CC1CC(C)CN(C(=O)Nc2cccc(Cl)c2)C1 (configuration not stated)	-3	98	91	101

Carrying on.
SMILES	HCMV UL50-53 inh	Sa growth inh	Sa growth inh second temp	GIV Gai3 FP
COC(=O)Cn1c(=N)n(Cc2ccc(C(C)(C)C)cc2)c2ccccc21	-5	94	79	101
COCCN1CCn2c(nc3cc(NC(C)=O)ccc32)C1	.	93	88	102
CCCn1c(Cn2ccnc2C)nc2cc(NC(=O)C(C)C)ccc21	-2	.	.	106
Cc1ccc(CNC(=O)c2c[nH]n3c(=O)c(Cc4ccc(F)cc4Cl)c(C)nc23)cc1	-71	0.6*	0.4*	100
COc1cccc(N2CCN(C(=O)c3cccc(-n4nnc5cccnc54)c3)CC2)c1	-27	.	.	117
Cc1ccc(C(=O)N2CCC(C)CC2)cc1NC(=O)c1nsc2ccccc12	.	100	85	107
COc1cc(Cl)c(C)cc1NC(=O)c1sc2ncn(CC(=O)Nc3ccc(C)c(Cl)c3)c(=O)c2c1C	-24	.	.	107
CCN(CC)c1cc(=O)n2c(-c3ccc(C)cc3)csc2n1	-9	.	.	116
CN(C)C(=S)Nc1ccccc1OC(F)F	-8	102	91	107
COc1ccc(C(=O)O)cc1	4&-6	103	93	.
O=C1c2ccccc2S(=O)(=O)NN1CCN1C(=O)c2ccccc2S1(=O)=O	-24	99	97	.
Nc1ccccc1SCc1ccc2nonc2c1	-53	89	87	101
O=C(c1ccccc1)N1CCC(O)(c2ccccc2)[C@H]2CCCC[C@H]21 (some centres not stated)	-7	98	83	.
CC1=C(C#N)c2nc(N)c(C#N)c(C)c2/C1=C\c1ccccc1	1	122	90	.
c1cc2c(nn1)CCc1nonc1-2	-30	104	92	109
CCOc1ccc(OCC)c(NC(=O)C(Cc2ccccc2)n2cccc2)c1 (configuration not stated)	3	98	95	101
CCn1cnc(S(=O)(=O)N2CCCC(C(=O)NC3CCCC3)C2)c1 (configuration not stated)	-11	.	.	102
Cc1ccc(Nc2cc(C)nc3c(-c4ccc(F)cc4)cnn23)cc1	-8	.	.	106
CCc1ccc(NC(=O)CCCN2C(=O)COc3ccc(C)cc32)cc1	-3	100	80	110
COc1ccc(/C=C(\C#N)C(=O)Nn2c(-c3cc(OC)c(OC)c(OC)c3)nc3ccccc3c2=O)cc1	-43	.	.	103
O=C(CSCc1ccco1)NCc1ccccc1Cl	-26	98	82	.
CCOc1ccc(OCC)c(NS(=O)(=O)c2cc(-c3c(C)noc3C)ccc2C)c1	-5	.	.	98
COc1ccc(-c2[nH]c3ccccc3c2SCCNC(=O)c2ccc(OC)c(OC)c2)cc1	.	120	73	102
Cc1cc(C)c(/C=C(\C#N)C(N)=O)c(C)c1	-22	114	98	103
CCOC(=O)c1cnc(SCC)[nH]c1=O	-17	123	80	106
CSc1ccc(CN(C)CC(=O)NC(=O)Nc2ccc3c(c2)OCCO3)cc1	7	100	98	.
Cc1nc(-c2ccccc2)sc1-c1ccc(SCC(=O)NC2CCCCC2)nn1	-12	.	.	98
O=C(COc1ccc2oc(-c3ccccc3)cc(=O)c2c1)N1CCCCC1	-8	92	78	109
CN1CCN(CCCNC(=O)Cc2ccc(NC(=O)N3CCSc4ncccc43)cc2)CC1	-19	101	101	104
COCCN(Cc1c(-c2cccs2)n(C)c2ccccc12)C(=O)Nc1ccccc1	-36	91	87	102
Cn1c(=O)c2c(-c3ccccc3)n3c(c2n(C)c1=O)C(c1ccc([N+](=O)[O-])cc1)Nc1ccccc1-3 (configuration not stated)	-18	117	89	103
CCCCN(CCCC)C(=O)c1cc2c(=O)n3cccc(C)c3nc2s1	-13	85	94	102
CCC1N(c2ccccc2)CCN1c1ccccc1	11	102	97	104
NC(=O)c1ccccc1NC(=O)CS(=O)(=O)Cc1ccccc1	-13	94	98	99
O=C(COc1ccccc1)NCc1nc(-c2ccccc2)no1	-6	121	92	101
Cc1ccccc1CN1C(=O)Nc2ccccc2S1(=O)=O	-24	.	.	104
O=C(OCc1cccc(Cl)c1)c1ccc2c(c1)OCO2	-6	94	100	103
CC(=O)NC(Cc1ccccc1)C(=O)NC1CCN(C(=O)c2ccccc2)CC1 (configuration not stated)	-7	118	82	102
CNc1nc2c(Cl)cc(Cl)cc2s1	-7	85	96	106
CC1CCN(CC(=O)Nc2cccc(C(F)(F)F)c2)CC1	-12	110	98	104
CC(C)N(C(=O)CSc1nnc2sc3ccccc3n12)c1ccccc1	-9	93	93	.
COc1nc2ccccc2nc1CCC(=O)NC1CCCCCC1	-17	95	95	104
COc1ccc(-n2nc(C(=O)Nc3ccc(Br)cc3C)c3c4ccccc4n(C)c3c2=O)cc1	-25	105	86	102
COc1ccc2c(c1)CC(NC(=O)Nc1cc(Cl)ccc1OC)CO2 (configuration not stated)	.	96	93	99
CC(NC(=O)C1CCC(CNS(=O)(=O)c2ccccc2)CC1)c1ccc2c(c1)OCCO2 (configuration not stated)	1	97	88	101
OC(CN1CCN(C2CCCCC2)CC1)c1ccc2cc[nH]c2c1 (configuration not stated)	-31	.	.	103
Cc1ccc(CN2CCC(CNc3ncnc4onc(C)c34)CC2)cc1	1	106	91	99
Fc1ccc(-n2nnnc2-c2cccc(C(F)(F)F)c2)cc1F	-13	.	.	102
Cc1noc(C)c1COC(=O)c1cccnc1SCC(=O)Nc1ccccc1OC(F)F	10	106	95	.
Cc1[nH]c(C)c(S(=O)(=O)N2CCC(C(=O)Nc3ccc(F)cc3F)CC2)c1C(=O)N1CCCC1	6	.	.	109

The results go on.
SMILES	HCMV UL50-53 inh	Sa growth inh	Sa growth inh second temp	GIV Gai3 FP
COc1cccc2c1OCC(C#N)=C2	-50	.	.	98
[N-]=[N+]=c1c(=O)ccc2c(=O)c3ccccc3c(=O)c1=2	-128	6.1*	3.3*	63*
Cc1nc(=S)sn1-c1nc(Nc2ccccc2)nc(Nc2ccccc2)n1	-27	91	80	106
CC1CC(N(C(=O)CN2C(=O)c3ccccc3C2=O)c2ccccc2)c2ccccc2N1C(=O)CN1C(=O)c2ccccc2C1=O (configuration not stated)	12	.	.	107
Cc1c(Cl)cccc1NC(=S)N(CCN(C)C)C1CCN(C(C)C)CC1	-33	90	86	103
O=C(CN1CCN(Cc2ccccc2)C1=O)NC1CCCCCCC1	.	98	95	104
CCOC(=O)Nc1cncc(Br)c1	-14	105	82	101
O=C(NC(=S)NCCC1=CCCCC1)c1ccco1	-21	87	79	.
COc1ccc(OC)c2c(C)cc(N3CCN(C(=O)c4ccc(Cl)cc4)CC3)nc12	-10	83	96	105
O=C(Nc1ccc(N2CCN(c3ccc(C(F)(F)F)cn3)CC2)nc1)c1cccs1	-43	101	85	103
CCOC(=O)CSc1cc(=O)n(CC)c2ccccc12	.	104	76	108
CN(c1c(-c2ccccc2)c(=O)c1=O)C1CCCCC1	-18	.	.	109
Cc1cccc(NC(=O)c2cccnc2)c1C	-8	87	87	.
Cc1ccc2nc(C(F)(F)F)cc(N3CCC(C(=O)O)CC3)c2c1	-8	96	82	99
CCS(=O)(=O)Nc1cc(C(=O)OC)ccc1C	0	104	102	110
